RE007 growth inh: less growth of the S. pombe RE007 Vpr strain; S. pombe RE007 Vpr strain, BacTiter-Glo ATP luminescence, 24 h; control for the full effect not named in the record; Potency, µM (titrated, usually from 92.2 µM), without a hit: at the highest dose activity change, negative = less growth; 360,000 compounds, 0.21% hits; AID 651644; active = well fitted falling curve with a large enough effect; inconclusive = small, poorly fitted or top-dose-only effect; inactive = no such curve, though single readings can be large or run the other way;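 further: nearly all actives have a fitted effect of over 50% in size; the assay follows cell death caused by Vpr and the record does not say whether a fall means rescue or toxicity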
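Fission yeast RE007 carrying one integrated HIV-1 vpr copy, seeded at OD 0.01 in PMG+AL medium with 23 nL pinned compound. Grown 24 h at 30 degrees; viability read by BacTiter-Glo luminescence after 5 min.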
StopGo reporter: FMDV 2A StopGo reporter, luciferase signal. 410,000 compounds, 1.2% hits. AID 1159524. human cells with a luciferase reporter of 2A StopGo recoding; control for the full effect not named in the record. Potency, µM (top dose mostly 57.9 µM), inactives show at the top dose signal change, negative = less light; active = well fitted falling curve with a large enough effect; inconclusive = small, poorly fitted or top-dose-only effect; inactive = no such curve, though single readings can be large or run the other way; tested in HEK293T cells; further: nearly all actives have a fitted effect of over 45% in size; luciferase light after 4 h
The depositor's hits bear a star; ? = inconclusive; [ ] = remark or other dose. On the % scale 0 is the no-effect control and ±100 the full control effect; potency means the concentration at half of the fitted maximal effect.

SMILES,RE007 growth inh,StopGo reporter
CCOC(=O)C1=CCN(S(=O)(=O)c2cccc(Cl)c2)C1c1ccc(F)cc1 (stereo not drawn),7%,-22%
O=C(NC1CCCCC1)C(c1cccc2ccccc12)n1c(=O)c(-c2cc3ccccc3[nH]2)nc2ccccc21 (stereo not drawn),-5%,-4%
COc1ccc(NC(=O)C2(C)CCN2C2Cc3ccccc3C2)cc1OC (stereo not drawn),4%[18.4 µM],-18%
CCCNC(=O)N(C)C[C@H]1Oc2cc(Br)ccc2S(=O)(=O)N([C@@H](C)CO)C[C@@H]1C,-7%,27%
COc1ccc(C(=O)OCC(=O)N2CCN(C(=O)c3ccco3)CC2)c(OC)c1OC,5%,0%
CCOc1ccc(CCN2C(=O)C(=O)N([C@@H](Cc3ccccc3)CN3CCC[C@H]3CN3C(=O)C(=O)NC[C@@H]3CC(C)C)C[C@@H]2Cc2ccc(O)cc2)cc1,-14%,8%
CN(C)CCN1CCN(C2CN(Cc3cn(Cc4ccccc4)nn3)S(=O)(=O)C2)CC1 (stereo not drawn),-8%,-12%
CC1(C(=O)Nc2ccc(Cl)c(Cl)c2)CCN1Cc1ccccc1OC(F)F (stereo not drawn),10%,32µM*
CC1(C)OC(=O)C2=C(C[C@@H](C3CCCC3)O[C@@H]2c2ccc(Cl)cc2)O1,0%,-19%
CCc1nc2ccc(C(=O)Nc3cccc(NS(C)(=O)=O)c3)cn2c1N(C)C(=O)Cc1ccccc1,6%,-8%
COc1ccc(C(C)(O)c2nc(-c3ccncc3)cs2)cc1 (stereo not drawn),-12%,?
O=C(/C=C/c1ccc2c(c1)OCO2)NCCS(=O)(=O)N1CCN(c2ccccc2)CC1,-3%,-8%
CC1(C(=O)NS(=O)(=O)c2ccccc2)CCN1C(=O)Cc1cccs1 (stereo not drawn),4%,-12%
COc1ccc(-c2noc(CCC(=O)NC3CCCCCC3)n2)cc1OC,6%,-3%
CC(C)NC(=O)C1(C)CCN1C(=O)C(c1ccccc1)c1ccccc1 (stereo not drawn),8%,-13%
O=C(Nc1ccccc1)O[C@@H]1C[C@H]2CCCC(=O)N3CC[C@@H](C1)[C@@H]23,-17%,-20%
CCCCC1Cc2[nH]c(=S)[nH]c(=O)c2C(C(C)C)O1 (stereo not drawn),28%,-26%
Cc1ccccc1CNC(=O)C(C)Sc1ccccc1 (stereo not drawn),4%,23%
C[n+]1ccc(-c2cc[n+](C)cc2)cc1,-3%,-18%
CCc1nc2ccc(C(=O)NCc3ccc(OC)cc3)cn2c1N(CC)Cc1cccc(Br)c1,-3%,-18%
CCOC(=O)[C@]12Cc3cc(C)ccc3[C@H]1N(C)C(=O)c1cc(OC)ccc12,-23%,40µM*
CCC1NC(=O)c2cc(S(N)(=O)=O)c(Cl)cc2N1 (stereo not drawn),3%[18.4 µM],-6%
COc1ccccc1Cn1c(C)c(C(=O)NCc2ccco2)sc1=O,3%[18.4 µM],-3%
N#CC(=C1C=C(Br)C(=NO)C=C1Cl)c1cccc2ccccc12,-18%,?
Cc1nc2ccccc2n1C(c1cccnc1)c1nc2ccccc2[nH]1 (stereo not drawn),-5%,34%[activator]
COc1ccc(Cn2cc(Cn3c4ccccc4c(=O)n3C(C)C)nn2)cc1,19%,-8%
CC(C)C[C@H]1CNC(=S)N1C[C@H]1CCCN1C[C@H](CC(C)C)N1C[C@H](Cc2ccc(O)cc2)N(CC2CCCCCC2)C1=S,8%,-21%
CN(C)C1CCCCC=CC(=O)NC1 (stereo not drawn),-11%,19%
Cc1cccc(C)c1NC(=O)C(c1ccncc1)N1CCN(CCN(C)C)CC1 (stereo not drawn),-3%,-3%
COc1ccc(CN2CCC[C@]3(N[C@H](c4ccc(C(F)(F)F)cc4)[C@@H]4C(=O)N(Cc5ccccc5)C(=O)[C@@H]43)C2=O)cc1,-3%,-15%
Cc1cccc(OC(=O)Nc2ccc(C(=O)O)c(O)c2)c1,11%,0%
COc1cc(Cl)c(CNC[C@H]2O[C@@H](n3cnc(C(N)=O)n3)[C@H](O)[C@@H]2O)c(Cl)c1O,0%,-1%
CC(C)c1ccccc1OCCCCN1CCCCC1,0%,-8%
CCc1nc2ccc(C(=O)NCc3cccs3)cn2c1N(C)Cc1nccs1,-21%[18.4 µM],-14%
COc1cccc(C2Nc3ccccc3C(=O)N2Cc2ccccc2)c1 (stereo not drawn),5%,-21%
COCCNC(=O)C1(C)CCCN(C(=O)c2ccc(OC)c(OC)c2)C1 (stereo not drawn),0%[18.4 µM],1%
COc1cc(CN2C[C@@H](CO)O[C@@H](n3cnc4c(NC5CC5)ncnc43)C2)cc(OC)c1OC,-10%,-16%
O=C(Oc1ccc[nH]c1=O)c1ccc(F)cc1,-22%,-15%
CC(C)NC(=O)c1cc(C2CCCCN2C(=O)c2ccc(C(C)C)cc2)on1 (stereo not drawn),-11%,6%
CC(=O)Nc1c(C#N)c(-c2ccccc2)c(C#N)c(=O)n1-c1ccc(C)cc1,13%,-22%
O=c1cccc(-c2cccc3ccccc23)o1,3%,10%
O=c1[nH]c(=O)c2cn[nH]c2[nH]1,10%[18.4 µM],-9%
Cc1ccccc1Sc1ccc([N+](=O)[O-])cn1,-6%,-22%
CC(=O)Nc1cccc(-c2ccnc3c2CC(C)(C(=O)Nc2cccc(C(C)=O)c2)O3)c1 (stereo not drawn),-11%,?
COc1ccc(-c2cnc(C(N)=O)c(=O)[nH]2)cc1,-6%,-13%

Profiles as entered above:
Record of `Cc1cccc(OC(=O)Nc2ccc(C(=O)O)c(O)c2)c1` = RE007 growth inh: 11%; StopGo reporter: 0%
Record of `CCc1nc2ccc(C(=O)NCc3cccs3)cn2c1N(C)Cc1nccs1` = RE007 growth inh: -21%[18.4 µM]; StopGo reporter: -14%

(next part)
SMILES,RE007 growth inh,StopGo reporter
Cc1cc(Cl)ccc1-c1nc(NC(C)C)nc2ccsc12,?,-28%
CC1(C(=O)NCc2ccc3c(c2)OCO3)CCN1Cc1csc2ccccc12 (stereo not drawn),3%,?
Cc1ccc(S(=O)(=O)N2CCCCC2)cc1NC(=O)c1ccc(=O)[nH]c1,-7%,0%
COc1ccc(OCCNC(=O)C2(C)CCN2Cc2ccc3ccccc3c2)cc1 (stereo not drawn),-18%,?
C[C@@H]1CN([C@@H](C)CO)C(=O)CCCn2nncc2CO[C@H]1CN(C)Cc1ccccc1,-10%,-10%
C[C@H](CO)N1C[C@H](C)[C@H](CN(C)C(=O)Cc2ccncc2)Oc2ncc(Br)cc2C1=O,-5%,0%
CN(C(=O)C1Cc2c(-c3ccccc3Oc3ccccc3)ccnc2O1)c1ccccc1 (stereo not drawn),13%,-12%
COCCNC(=O)C1(C)CCCN(CCS(=O)(=O)c2ccc(C)cc2)C1 (stereo not drawn),-3%,-22%
CC1(C)OC(=O)C2=C(C[C@@H](CCc3ccccc3)O[C@H]2C2CCCC2)O1,16%,0%
CCOC(=O)[C@]12CCCC=C1N(Cc1ccc3c(c1)OCO3)C(=O)[C@H](CC(=O)NCc1cccs1)C2,0%,14%
O=C(NCc1ccc(F)cc1)Nc1nnc([C@@H]2C[C@H](O)[C@@H](CO)O2)s1,23%[18.4 µM],-6%
C[C@@H]1CN([C@@H](C)CO)S(=O)(=O)c2ccc(Br)cc2O[C@H]1CN(C)C(=O)C1CCOCC1,14%,-10%
COc1cccc(NC(=O)c2ccc(N3C(=O)C4CC=CCC4C3=O)cc2)c1 (stereo not drawn),1%,-14%
Cc1cccnc1CNC(=O)C1(C)CCCN1CC(C)C (stereo not drawn),10%,-17%
COc1cc2c(cc1CNC[C@H]1O[C@@H](n3cnc(C(N)=O)n3)[C@H](O)[C@@H]1O)OCO2,-2%,-17%

Shown with two lines to a compound: 3 of the compounds above.
Order of values – RE007 growth inh, StopGo reporter
> COc1ccc(-c2noc(CCC(=O)NC3CCCCCC3)n2)cc1OC
  6%, -3%
> CC(C)NC(=O)C1(C)CCN1C(=O)C(c1ccccc1)c1ccccc1 (stereo not drawn)
  8%, -13%
> O=C(Nc1ccccc1)O[C@@H]1C[C@H]2CCCC(=O)N3CC[C@@H](C1)[C@@H]23
  -17%, -20%

Remaining list, next part.
SMILES,RE007 growth inh,StopGo reporter
O=C1CC2(CCCCCC2)Oc2ccccc21,4%,-15%
CCOc1ccccc1N(CC(=O)N1CCN(Cc2ccccc2)CC1)S(=O)(=O)c1ccccc1,-16%,1%
CN1OC[C@@H]2CN(C(=O)C(C)(C)C)[C@H](c3ccc(-c4cccnc4)cc3)C[C@@H]21,5%,-8%
COC(=O)c1ccc2nc(-c3ccco3)c(Cc3ccccc3)n2c1,?,-19%
CC(C)Oc1cc(F)ccc1-c1cc(C(=O)Nc2ccccc2)[nH]n1,-6%,6%
Cc1ccccc1-c1cccc([C@@H]2C[C@H]3[C@H](CON3C)CN2Cc2ccccc2)c1,-14%,?
O=C(Nc1ccccc1)C1Cc2c(-c3cccc(F)c3)ccnc2O1 (stereo not drawn),-17%[18.4 µM],-13%
COC(=O)[C@@]12C[C@@H](CC(=O)NCC34CC5CC(CC(C5)C3)C4)C(=O)N(Cc3ccco3)C1=CCC(C)(C)C2,-7%,-22%
CC1CCCCC1NC(=O)CSc1nnc(-c2ccco2)n1N (stereo not drawn),13%,-26%
COc1cc(NC(=O)Nc2nnc([C@H]3C[C@H](O)[C@@H](CO)O3)s2)cc(OC)c1OC,-9%,?
CCOc1ccc(CCN2C(=S)N([C@@H](Cc3ccccc3)CN3CCC[C@@H]3CN3C(=S)NC[C@@H]3Cc3ccc(O)cc3)C[C@@H]2CC(C)C)cc1,5%,-19%
COC(=O)[C@H]1C[C@@]2(O)CN(S(=O)(=O)c3ccc(C)cc3)C[C@@]2(OC(=O)NC2CCCC2)C[C@H]1C(=O)OC,4%,-11%
COc1cc(F)ccc1-c1csc(C(NC(C)=O)c2ccccc2)n1 (stereo not drawn),1%,-23%
CCNC(=O)C1CCCN(C(=O)c2c(-c3ccccc3)noc2C)CC1 (stereo not drawn),9%,?
CCCCn1nnnc1C1(C)CCC(=O)N1CC(F)(F)F (stereo not drawn),6%,-22%
CCOC(=O)[C@]12CCCC=C1N(Cc1cccc3ccccc13)C(=O)[C@H](CC(=O)NCc1cccc(C(F)(F)F)c1)C2,3%,-17%
CCCC(=O)N1CCC1(C)C(=O)Nc1ccc2nccnc2c1 (stereo not drawn),9%,-11%
COC(=O)C1(C(=O)OC)C[C@H](/C=C/c2ccccc2)N(Cc2ccccc2OC)[C@@H]1c1ccccc1,14%,-15%
C[C@@H]1CCCCO[C@@H](CN(C)C(=O)Nc2ccccc2)[C@@H](C)CN([C@H](C)CO)C(=O)c2cc(N(C)C)ccc2O1,-4%,-7%
CCOC(=O)C1=CCN(S(=O)(=O)c2cccc(Cl)c2)C1c1ccccc1 (stereo not drawn),2%,-21%
COC1=CC(=O)OC(c2ccc(C(F)(F)F)cc2)C1 (stereo not drawn),-7%,0%
N#Cc1cccc(-c2csc(C(O)c3ccc(F)cc3)n2)c1 (stereo not drawn),12%,32%[activator]
CCN(CC)c1c(C)nc2ccc(C(=O)N3CCN(C(=O)c4ccco4)CC3)cn12,3%[18.4 µM],-20%
COc1cc2c(cc1OCc1ccccc1)/C(=C/C(=O)OCc1ccccc1)OC2,-7%,-12%
CC(=O)c1cccc(-c2ccnc3c2CC(C(=O)Nc2cccnc2)O3)c1 (stereo not drawn),-7%,-19%
O=C(NCc1ccco1)C1Cc2c(-c3ccccc3Oc3ccccc3)ccnc2O1 (stereo not drawn),13%,-18%
Cc1cccc(C)c1-n1nnnc1C1c2ccccc2C(=O)N1CCC(C)C (stereo not drawn),2%,18%
O=C(NCc1ccccc1)c1cc(C2CCCN(C(=O)C3CCCCC3)C2)on1 (stereo not drawn),7%,0%
Cc1ccc(C(=O)Nc2ccccc2Oc2ccccc2)o1,-19%,-10%
CCCNC(=O)C1(C)CCCN(Cc2ccc3c(c2)OCO3)C1 (stereo not drawn),-11%,-13%
Cc1cc(C)c(S(=O)(=O)N2C[C@H]3CON(C)[C@H]3C[C@H]2c2ccc(N3CCCCC3)cc2)c(C)c1,-21%,-10%
Cc1ccc(S(=O)(=O)N2[C@H](CC(=O)OCc3ccccc3)OC[C@@H]2C)cc1,-14%,-17%
Cc1nc(SCC(=O)NC2CCCC2)c2oc3ccccc3c2n1,3%,-21%
CCN(CC)C(=O)C1=C(C)N(Cc2ccc(C(C)(C)C)cc2)C(=O)C(CC(=O)NCc2cccc3ccccc23)C1 (stereo not drawn),14%,?
CC(C)N1CCC1(C)C(=O)Nc1cccc(C#N)c1 (stereo not drawn),11%,-12%
CCOc1ccccc1-n1nnnc1SCC(=O)N(C)C1CCS(=O)(=O)C1 (stereo not drawn),-6%,-21%

From PubChem BioAssay

These rows are one share of the data; rates above refer to the full screens.
